Bioassay records: PubChem BioAssay, The Scripps Research Institute Molecular Screening Center
LYPLA1 counter: counter-screen for PME1 inhibitors: inhibitors of human LYPLA1; O75608; recombinant LYPLA1, FP-Rh probe fluorescence polarization; inhibition, % at 5.9 µM; 320,000 compounds, 0.16% hits;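 active = inhibition above the mean of all tested compounds plus 3 SD, set per campaign, cut at about 14% in these data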;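 note: inhibitors block serine hydrolase probe labeling of LYPLA1 so polarization falls; 0% = enzyme with DMSO and 100% = wells lacking LYPLA1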
LYPLA2 counter: counter-screen for PME1 inhibitors: inhibitors of human LYPLA2; O95372; recombinant LYPLA2, FP-Rh probe fluorescence polarization; inhibition, % at 5.9 µM; 320,000 compounds, 0.38% hits;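 active = inhibition above the screen-wide mean plus 3 SD, limit set per campaign, cut at about 26% in these data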;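 note: 0% = LYPLA2 with DMSO and 100% = wells lacking LYPLA2 enzyme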
Target sequence (O95372 whole entry, looked up): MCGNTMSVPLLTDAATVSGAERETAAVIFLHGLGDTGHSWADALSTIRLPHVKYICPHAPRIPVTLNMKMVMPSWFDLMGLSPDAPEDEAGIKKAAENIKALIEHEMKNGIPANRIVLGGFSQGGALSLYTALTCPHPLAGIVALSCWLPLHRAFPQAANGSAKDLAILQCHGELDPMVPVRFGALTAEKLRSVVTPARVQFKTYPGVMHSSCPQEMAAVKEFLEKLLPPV
ZTA DNA inh: ZTA (EBV) inhibition in EBNA-1 counter-screen; AID 2234; 320,000 compounds, 0.15% hits; P03206; inhibition, % at 11 µM; ZTA-DNA binding, fluorescence polarization; in the data active = inhibition above about 33%
Target sequence (P03206 whole entry, looked up): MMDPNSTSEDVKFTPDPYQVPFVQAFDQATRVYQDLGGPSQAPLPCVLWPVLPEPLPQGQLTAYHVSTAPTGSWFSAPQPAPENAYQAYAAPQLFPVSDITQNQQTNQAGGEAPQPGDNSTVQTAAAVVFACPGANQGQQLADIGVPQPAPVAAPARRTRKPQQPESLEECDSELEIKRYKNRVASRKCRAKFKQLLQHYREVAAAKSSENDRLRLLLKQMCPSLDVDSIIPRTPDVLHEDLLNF
PREPL inhibitor: human PREPL enzyme inhibition | recombinant PREPL, fluorescence polarization activity-based probe | Q4J6C6 | 320,000 compounds, 0.68% hits | AID 2751 | inhibition, % at 5.96 µM; in the data active = inhibition above about 43%;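 note: 0% = enzyme with DMSO and 100% = wells lacking enzyme; many of its hits are not listed in these tables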
PAFAH1B3 FP inh: blocks human PAF acetylhydrolase 1B catalytic subunit 3; Q15102; recombinant PAFAH1B3, FP-rhodamine probe, fluorescence polarization; inhibition, % at 3.39 µM; 340,000 compounds, 0.28% hits;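 active = inhibition above the screen-wide average of all tested compounds plus 3 SD, cut at about 25% in these data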;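 note: 0% = enzyme with DMSO only and 100% = wells lacking PAFAH1B3 protein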
Target sequence (Q15102 whole entry, looked up): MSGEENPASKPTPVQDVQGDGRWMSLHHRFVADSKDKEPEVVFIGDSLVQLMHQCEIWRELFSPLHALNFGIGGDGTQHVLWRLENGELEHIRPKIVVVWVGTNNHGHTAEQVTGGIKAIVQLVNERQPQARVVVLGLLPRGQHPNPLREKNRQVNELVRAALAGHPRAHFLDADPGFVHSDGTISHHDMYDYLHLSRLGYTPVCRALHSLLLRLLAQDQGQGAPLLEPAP
EBNA-1 inh: blocks EBNA-1 binding to DNA | AID 1950 | 300,000 compounds, 0.34% hits | inhibition, % at 14.8 µM | EBNA-1 DNA binding, fluorescence polarization; in the data active = inhibition above about 28%
PAD4 FP inh: blocks human protein arginine deiminase 4 | AID 485272 | recombinant PAD4, RCA probe fluorescence polarization | inhibition, % at 6.36 µM | 330,000 compounds, 0.41% hits | Q9UM07;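 active = percent inhibition above a cutoff equal to the mean of all tested compounds plus 3 SD, cut at about 15% in these data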;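 note: 0% = PAD4 with RCA probe and DMSO and 100% = probe without PAD4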
PAFAH2 FP inh: inhibitors of human PAFAH2. AID 492956. 340,000 compounds, 0.99% hits. recombinant PAFAH2, FP-rhodamine activity probe, fluorescence polarization. inhibition, % at 3.39 µM;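 active = inhibition above the mean over all tested compounds plus 3 SD, cut at about 30% in these data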;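 note: inhibitors block probe labeling of enzyme so polarization drops; 0% = enzyme with DMSO and 100% = wells lacking PAFAH2 protein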
* hit, by the source's call; · = no result given. The list is partial; the hit share may differ from the screen's.

Start of the data: the first six entries as a preview:
1. COc1cccc2cc(C(=O)CS(=O)(=O)c3ccc(C)cc3)c(=O)oc12
2. COc1nc(N/N=C/c2ccc(-c3ccccc3[N+](=O)[O-])o2)nc(N2CCOCC2)n1
3. CCOC(=O)C1=C(C)NC(=O)NC1c1cn(-c2ccccc2)nc1-c1cccs1 (stereo unspecified)
4. O=C(Nc1ccnn1C1CCN(Cc2c[nH]c3ccccc23)CC1)c1ccccc1
5. C=CCn1c(SCC(=O)c2ccc(NS(=O)(=O)c3ccccc3)cc2)nnc1-c1cccs1
6. CCCCC(O)(CCCC)C(=O)NN(C(=O)CCl)c1ccccc1

| Screen / compound no. | 1 | 2 | 3 | 4 | 5 | 6 |
| --- | --- | --- | --- | --- | --- | --- |
| LYPLA1 counter | -5 | 7 | 2 | 0 | -7 | 0 |
| LYPLA2 counter | -2 | -2 | 4 | 2 | -6 | 0 |
| ZTA DNA inh | 10 | 9 | 3 | 7 | 12 | -12 |
| PREPL inhibitor | -1 | 17 | -3 | -4 | -4 | -6 |
| PAFAH1B3 FP inh | 5 | 7 | 6 | -2 | -1 | 2 |
| EBNA-1 inh | 14 | -3 | -4 | 13 | 8 | 1 |
| PAD4 FP inh | -5 | -7 | 1 | 1 | 1 | 6 |
| PAFAH2 FP inh | 9 | 2 | 3 | 1 | -8 | -1 |

Results, repeating the preview:
1. COc1cccc2cc(C(=O)CS(=O)(=O)c3ccc(C)cc3)c(=O)oc12
2. COc1nc(N/N=C/c2ccc(-c3ccccc3[N+](=O)[O-])o2)nc(N2CCOCC2)n1
3. CCOC(=O)C1=C(C)NC(=O)NC1c1cn(-c2ccccc2)nc1-c1cccs1 (stereo unspecified)
4. O=C(Nc1ccnn1C1CCN(Cc2c[nH]c3ccccc23)CC1)c1ccccc1
5. C=CCn1c(SCC(=O)c2ccc(NS(=O)(=O)c3ccccc3)cc2)nnc1-c1cccs1
6. CCCCC(O)(CCCC)C(=O)NN(C(=O)CCl)c1ccccc1
7. O=C(OCN1C(=O)c2ccccc2C1=O)c1ccccc1
8. CCCc1cc(=O)[nH]c(SCC(=O)Nc2nonc2C)n1

| Screen / compound no. | 1 | 2 | 3 | 4 | 5 | 6 | 7 | 8 |
| --- | --- | --- | --- | --- | --- | --- | --- | --- |
| LYPLA1 counter | -5 | 7 | 2 | 0 | -7 | 0 | -1 | -1 |
| LYPLA2 counter | -2 | -2 | 4 | 2 | -6 | 0 | 8 | -2 |
| ZTA DNA inh | 10 | 9 | 3 | 7 | 12 | -12 | 6 | 8 |
| PREPL inhibitor | -1 | 17 | -3 | -4 | -4 | -6 | -3 | -10 |
| PAFAH1B3 FP inh | 5 | 7 | 6 | -2 | -1 | 2 | -1 | 6 |
| EBNA-1 inh | 14 | -3 | -4 | 13 | 8 | 1 | -3 | 2 |
| PAD4 FP inh | -5 | -7 | 1 | 1 | 1 | 6 | -1 | 3 |
| PAFAH2 FP inh | 9 | 2 | 3 | 1 | -8 | -1 | 12 | -1 |

9. Cc1ccc(S(=O)(=O)/N=C(\CCl)N2CCOCC2)cc1
10. Nc1ccc(O)c(-c2nc3ccccc3s2)c1
11. Cc1ccc(NS(=O)(=O)c2cc3[nH]c(=O)c(=O)[nH]c3cc2C)c(C)c1
12. Cc1cc2nc(CN(C)Cc3c(C(=O)N(C)C)nc4ccc(Cl)cn34)[nH]c2cc1C
13. O=c1[nH]c(CN2CCOCC2)nc2cc(Cl)ccc12
14. CCCCc1nnc(NC(=O)CSc2nc(N)cc(=O)[nH]2)s1
15. CC1CCCC(C)N1C(=O)CSc1nnc(COc2ccccc2)n1-c1ccccc1 (stereo unspecified)
16. CCOC(=O)c1cccc(NC(=O)N2CCOCC2)c1

| Screen / compound no. | 9 | 10 | 11 | 12 | 13 | 14 | 15 | 16 |
| --- | --- | --- | --- | --- | --- | --- | --- | --- |
| LYPLA1 counter | 2 | 0 | 2 | -2 | 2 | -1 | -2 | -2 |
| LYPLA2 counter | 4 | -5 | 2 | -4 | 6 | -2 | -1 | 7 |
| ZTA DNA inh | 10 | -3 | -11 | -2 | 4 | 1 | -6 | 16 |
| PREPL inhibitor | 1 | 6 | 5 | 10 | 2 | -6 | 8 | 2 |
| PAFAH1B3 FP inh | 12 | 8 | 13 | 3 | 1 | 3 | 5 | 14 |
| EBNA-1 inh | 11 | -4 | 2 | -22 | -2 | -6 | 8 | 0 |
| PAD4 FP inh | 0 | -1 | 0 | -6 | -4 | -10 | -3 | -1 |
| PAFAH2 FP inh | 5 | 2 | 4 | 2 | -5 | -1 | 10 | 5 |

Full records from above. Values in the order: LYPLA1 counter, LYPLA2 counter, ZTA DNA inh, PREPL inhibitor, PAFAH1B3 FP inh, EBNA-1 inh, PAD4 FP inh, PAFAH2 FP inh
CCCCc1nnc(NC(=O)CSc2nc(N)cc(=O)[nH]2)s1 as listed: -1, -2, 1, -6, 3, -6, -10, -1
Cc1cc2nc(CN(C)Cc3c(C(=O)N(C)C)nc4ccc(Cl)cn34)[nH]c2cc1C as listed: -2, -4, -2, 10, 3, -22, -6, 2

Further entries:
17. O=C(CCc1ccccc1)NC(NC(=S)Nc1ccc(Cl)cc1)C(Cl)(Cl)Cl (stereo unspecified)
18. COc1ccc(Nc2nc(N)nc(CCl)n2)cc1
19. COc1ccc(C(=O)NCc2nnc(SCC(=O)N3CCCCC3)o2)cc1
20. Cc1cc(C)cc(NS(=O)(=O)c2cnc(Cl)c(Cl)c2)c1
21. N#C/C(=C(/O)CCl)c1nc2c(s1)CCc1ccccc1-2
22. COc1ccc(C2C(C(=O)O)c3ccccc3C(=O)N2Cc2ccco2)cc1 (stereo unspecified)
23. CC1CCCC(C)N1C(=O)CSc1nnc(C2CCCCC2)o1 (stereo unspecified)
24. CCN(C(=O)COC(=O)c1cc(S(=O)(=O)N2CCOCC2)c(Cl)cc1Cl)C1CCS(=O)(=O)C1 (stereo unspecified)
25. CC(C)(O)C#Cc1ncc(C(F)(F)F)cc1Cl
26. CCCCCn1ccc(=O)c2c(C(F)(F)F)nccc21
27. O=C(CCCCl)Nc1nc(-c2ccc3c(c2)OCCO3)cs1

| Screen / compound no. | 17 | 18 | 19 | 20 | 21 | 22 | 23 | 24 | 25 | 26 | 27 |
| --- | --- | --- | --- | --- | --- | --- | --- | --- | --- | --- | --- |
| LYPLA1 counter | -14 | 0 | -5 | -5 | -2 | -1 | 4 | 1 | -1 | -3 | -1 |
| LYPLA2 counter | -28 | -1 | 1 | -4 | -4 | -3 | 3 | -9 | -3 | -8 | -4 |
| ZTA DNA inh | -13 | -3 | -12 | 3 | 9 | -9 | 8 | 0 | 2 | -4 | 10 |
| PREPL inhibitor | -2 | 0 | 6 | -10 | 10 | 4 | 0 | -2 | 8 | -2 | 1 |
| PAFAH1B3 FP inh | -7 | -1 | 2 | 8 | -2 | · | 4 | · | 4 | 10 | -2 |
| EBNA-1 inh | -4 | 3 | -14 | -1 | 5 | -7 | 5 | 1 | -12 | 1 | 17 |
| PAD4 FP inh | -3 | 0 | 5 | -6 | -8 | 2 | 2 | 1 | -1 | -4 | 1 |
| PAFAH2 FP inh | -31 | 8 | 8 | -5 | 30* | · | 4 | · | -1 | 8 | -5 |
